LANA-nucl inh: LANA-nucleosome interaction inhibition | 51,000 tested, 0.3% active | z-score (no concentration beside the values) | FITC-LANA1-23 / chicken nucleosome fluorescence polarization; stronger effect = lower value;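 active means both repeat wells score below -2 in polarization z-score versus plate sample wells, excluding overly bright wells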;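 further: 100 nL library stock added to about 30 µL; numbers are from one replicate; some results filed as inactive read as strong as hits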
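Assay system: FITC-LANA peptide and chicken nucleosomes; input: 240 nM purified chicken nucleosomes (480 nM peptide binding sites), final; also added: 50 nM FITC-LANA1-23 probe; medium: TEN-BT buffer, pH 7.5; doses: pin-transferred compound, 100 nL; times: 10–45 min, room temperature; technique: fluorescence polarization; replication: duplicates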
Ab BasE inh: blocks the Acinetobacter baumannii siderophore enzyme BasE. inhibition, % (concentration not given with the values). AID 485350. purified BasE, fluorescence polarization binding displacement. 84,000 tested, 0.1% active;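 active means both replicates above 25% with normal brightness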;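 further: 0% = negative plate control signal and 100% = positive plate control signal; stock transfer was 100 nL into about 30 µL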
Starred values were filed as active, the others as inactive; · = not tested or not shown.

SMILES	LANA-nucl inh	Ab BasE inh
CCOC(=O)CC1=NN(c2ccccc2)C(=O)/C1=C\c1cc(OC)c(OC)cc1OC	·	-0.4
Cc1ccc(S(=O)(=O)NC2=NCN(CCOC(=O)c3ccccc3)CN2)cc1	0.87	-0.5
Nc1cc(S(=O)(=O)C(F)(F)F)cc(S(=O)(=O)C(F)(F)F)c1	0.21	0.2
CCN1CNC(=S)N(c2ccccc2)C1	·	2.7
CN(Cc1ccco1)C(=O)C(Cc1ccccc1)NS(=O)(=O)c1ccc2c(c1)CCC(=O)N2 (stereo not given)	0.84	1.0
CCOC(=O)/C(C#N)=c1\s/c(=C\Nc2ccccc2)c(=O)n1CC	·	-0.2
O=C(O)c1cncc(Cl)c1	-0.45	4.9
Cc1ccc(C(=O)/C=C2\N/C(=N\S(=O)(=O)c3ccc(N)cc3)NC2=O)cc1	·	3.0
O=C(COc1ccc2c(c1)CCC2)NCCc1ccccn1	·	0.4
O=C(Nc1ccc(-c2ccccc2)oc1=O)c1ccccc1	0.29	·
CCOc1ccc(N=Cc2ccc(N(C)CCC#N)cc2)cc1	-0.16	2.0
CC(C)CC(=O)N1CCN(Cc2ccc(Cl)cc2)CC1	·	1.3
N#CC(C#N)=C(N)COc1ccc(F)cc1	2.4	·
CCCOc1ccc(=O)n(C)n1	·	-1.8
CC(C)c1ccccc1OCC(=O)NC(C)C1CCCO1 (stereo not given)	-0.53	2.0
Cc1noc(C)c1CCC(=O)N1CCC(c2c[nH]c3ccccc23)(c2c[nH]c3ccccc23)CC1	-1.3	1.7
O=S(=O)(c1cccs1)N1CCN(CCO)CC1	·	3.8
CC1(C)C2CCC13CS(=O)(=O)N1OC13C2 (stereo not given)	0.011	0.6
COc1ccc(-n2nnnc2SCC(=O)N2CCCCC2C)cc1 (stereo not given)	0.32	-0.1
CCCn1c2ccccc2c2ccccc21	·	1.7
CN(C)CC(C)(C)NS(=O)(=O)c1ccc(Cl)cc1	·	1.9
COc1ccc(C(=O)CSc2nnc(-c3ccoc3C)n2CC(C)C)cc1	-0.5	-1.2
COc1ccc(CCC(=O)NCC#N)cc1	0.61	-0.7
CCC(C)C1NC(=O)NC1=O (stereo not given)	·	2.0
Cc1nnc(CSc2nnc(COc3ccccc3)o2)o1	0.36	-2.9
c1ccc2[nH]c(SCCCN3CCCCC3)nc2c1	·	-1.5
Cc1ccc2c(CN3CCCCCC3)cc(=O)oc2c1	0.34	-0.4
CN(c1ccccc1)S(=O)(=O)c1ccccc1C(=O)O	·	2.0
CCN(CC)C(=S)NC(=O)C12CC3CC(CC(C3)C1)C2	0.84	-0.8
c1csc(C2NCc3c(sc4c3CCCC4)-n3cccc32)c1 (stereo not given)	-0.48	-0.7
Cc1nc2ccccc2c2c1C(=O)N(c1ccccc1)C2=O	-0.46	0.4
NCc1ccc(C(=O)O)o1	-0.25	-0.6
O=C(COC(=O)C1CC2CCCC(C1)C2=O)Nc1cccc2nsnc12 (stereo not given)	·	0.1
CC1=CCP(=O)(c2ccccc2)C1 (stereo not given)	·	-2.9
CCN(Cc1nc(-c2ccc(OC)cc2)no1)C(=O)/C=C/c1ccc(OC)c(OC)c1	-0.046	-7.6
CCOc1cccc(OCCOc2ccc(F)cc2)c1	-0.72	0.4
Cc1ccc(/C(N)=N/OC(=O)Oc2ccccc2)cc1	2	-1.8
COc1cc(/C=C/C(=O)N(Cc2nnc(-c3ccc(Cl)cc3)o2)C2CCCC2)cc(OC)c1OC	·	1.2
C=C(C)CN(CC)c1nc(N)c2c(N)nc3c(c2c1C#N)CC(=O)N3CC1CCCO1 (stereo not given)	·	-5.2
COc1cccc(C(=O)NCCSc2ccc(C)cc2)c1	-1.2	-1.1
Clc1ccc(Nc2ccc(-c3ccccc3)nn2)cc1	·	1.9
C(=C\c1ccccc1)/CN1CCN(c2ncnc3sccc23)CC1	·	0.3
ON(Cn1nnc2ccccc21)Cn1nnc2ccccc21	0.45	5.5
COc1cc(C2c3c(oc4ccccc4c3=O)C(=O)N2c2nnc(C)s2)ccc1O (stereo not given)	-0.65	3.9
O=C(CSc1nnnn1-c1ccccc1)NCC1CCCCC1	·	-2.2

5 records picked at random from those above:
SMILES	LANA-nucl inh	Ab BasE inh
COc1cc(/C=C/C(=O)N(Cc2nnc(-c3ccc(Cl)cc3)o2)C2CCCC2)cc(OC)c1OC	·	1.2
C=C(C)CN(CC)c1nc(N)c2c(N)nc3c(c2c1C#N)CC(=O)N3CC1CCCO1 (stereo not given)	·	-5.2
COc1cc(C2c3c(oc4ccccc4c3=O)C(=O)N2c2nnc(C)s2)ccc1O (stereo not given)	-0.65	3.9
COc1cccc(C(=O)NCCSc2ccc(C)cc2)c1	-1.2	-1.1
CCN(Cc1nc(-c2ccc(OC)cc2)no1)C(=O)/C=C/c1ccc(OC)c(OC)c1	-0.046	-7.6

Next compounds
SMILES	LANA-nucl inh	Ab BasE inh
CC1CCCC(C)N1C(=O)COC(=O)c1ccc(-n2cccc2)cc1 (stereo not given)	·	-2.2
C#CCN1C(=O)S/C(=C/C=C/c2ccc(N(C)C)cc2)C1=O	3.2	-49
CCCN1CCN(CCCNC(=O)C2CCN(c3ncnc4c3sc3cccc(F)c34)CC2)CC1	-0.52	-14
CC(C)(C)c1ccc(-c2nnc(SCCC#N)n2C2CCCC2)cc1	·	-5.4
CC1(C)CC(=O)C=C(Nc2ccc3c(c2)OCO3)C1	·	1.8
Clc1ccc2c(c1)NNc1nncn1-2	-0.2	3.2
CC(C)c1ccc(-c2nnn(CC(=O)c3ccc(NS(C)(=O)=O)cc3)n2)cc1	·	2.1
CCN(CC)S(=O)(=O)c1cc(C(=O)Nc2cccc3c2C(=O)NC3=O)ccc1Cl	·	1.6
N#Cc1cc(C(=O)c2ccccc2O)coc1=O	·	-0.6
CCC(C)NC(=S)Nc1ncccc1C(=O)OC (stereo not given)	0.6	0.4
C=C1c2ccccc2N=C(SCC(=O)Nc2cc(C)ccc2OC)N1C	·	0.6
O=C(Nc1ccc(N2C(=O)C=CC2=O)cc1Cl)c1ccco1	-1.3	0.5
Nc1[nH]c(N=NC(=O)c2cccc(S(=O)(=O)N3CCOCC3)c2)c2ccccc12	·	1.5
Cc1nc(Cc2nnc(SCC(=O)NC(=O)c3cccn3C)o2)cs1	·	1.0
O=C(Nc1cc2ccccc2s1)N1CCN(Cc2c(F)cccc2Cl)CC1	-0.36	·

Part of the list above in order of count of non-hydrogen atoms, highest first:
SMILES	LANA-nucl inh	Ab BasE inh
CCCN1CCN(CCCNC(=O)C2CCN(c3ncnc4c3sc3cccc(F)c34)CC2)CC1	-0.52	-14
CC(C)c1ccc(-c2nnn(CC(=O)c3ccc(NS(C)(=O)=O)cc3)n2)cc1	·	2.1
O=C(Nc1ccc(N2C(=O)C=CC2=O)cc1Cl)c1ccco1	-1.3	0.5
Clc1ccc2c(c1)NNc1nncn1-2	-0.2	3.2

Returning to the listing; the 4 compounds before the break are reprinted first.
SMILES	LANA-nucl inh	Ab BasE inh
O=C(Nc1ccc(N2C(=O)C=CC2=O)cc1Cl)c1ccco1	-1.3	0.5
Nc1[nH]c(N=NC(=O)c2cccc(S(=O)(=O)N3CCOCC3)c2)c2ccccc12	·	1.5
Cc1nc(Cc2nnc(SCC(=O)NC(=O)c3cccn3C)o2)cs1	·	1.0
O=C(Nc1cc2ccccc2s1)N1CCN(Cc2c(F)cccc2Cl)CC1	-0.36	·
O=c1c2ccccc2c(C=NCCCN2CCOCC2)c(O)n1Cc1ccccc1	·	1.0
CCOC(=O)c1ccc2c(c1)CC/C(=C\c1ccc(Cl)cc1Cl)C2=O	·	1.5
O=C(COC(=O)Cc1cccc(C(F)(F)F)c1)Nc1ccc2c(c1)OCO2	·	2.6
CCOC(=O)c1c(C(F)(F)F)cc(-c2ccccc2)nc1C	0.43	-1.6
COC(=O)c1cc(C(=O)OC)c(=O)[nH]c1C	2.4	-1.3
CCc1ccc(-c2cc(C)no2)cc1S(=O)(=O)N1CCc2ccccc21	·	-4.4
CC(Oc1ccc2ccccc2c1)C(=O)NN (stereo not given)	·	-1.0
CCOC(=O)c1cc2sccc2n1CCC(=O)O	-0.88	2.7
CCOC(=O)C(CC)C(N)Cc1ccc(OC)c(OC)c1 (stereo not given)	-0.076	-2.7
O=C(CCCn1c(=S)[nH]c2cc3c(cc2c1=O)OCO3)NC1CCCCC1	0.053	-0.7
Cc1ccc(C(c2nnnn2CS(=O)(=O)c2ccc(C)cc2)N2CCCC2)cc1 (stereo not given)	-0.22	-0.2
COc1ccc2c(c1)c(C(=O)O)c(C)n2-c1ccc(Cl)cc1	·	-0.5
COc1ccccc1C(=O)Nc1ccc2c(c1)COC2=O	-0.14	1.7
CC(C)C[C@@H](/C=C/S(C)(=O)=O)NC(=O)[C@H](CC(C)C)NC(=O)[C@H](CC(C)C)NC(=O)OCc1ccccc1	-0.36	0.8
CC1(C)CC(=O)C2=C(C1)NC(Nc1nc3ccccc3s1)=NC2c1cccnc1 (stereo not given)	-0.018	1.7
Cc1ccc(-c2nnn(CC(=O)Nc3cccc4cccnc34)n2)o1	-0.67	-0.8
Cc1ccc(S(=O)(=O)N2CCCC2C(=O)Nc2cc(C)on2)cc1 (stereo not given)	·	0.7
O=C(Nc1ccccc1Cl)c1cccs1	-1.1	-1.6
OCCN1CN(c2nc3ccccc3s2)CN(c2nc3ccccc3s2)C1	-0.034	0.9
Cc1sc(-n2cccc2)c(C(=O)OCc2ccc(C#N)cc2)c1C	·	0.9
O=C(Cn1nnc(-c2ccccc2)n1)N/N=C1\CCCc2ccccc21	·	-2.9
O=C(NCCc1ccccc1)Nc1ccccc1	1.4	-1.5
O=C(COc1ccccc1)Nc1nc2ccccc2n1CCN1CCCCC1	-1.5	-4.7
CCCc1cc(=O)oc2cc(C)cc(OCC(=O)OCC)c12	-0.026	0.2
Cc1ccc(S(=O)(=O)N=C2C=CC(=O)C=C2)cc1	·	2.8
O=C(CNS(=O)(=O)c1ccccc1)Nc1cccc(Cl)c1	·	0.1
CC(Oc1ccc(F)cc1)C(=O)Nc1cccc(-c2nn[nH]n2)c1 (stereo not given)	0.63	0.5
N#Cc1ccc(OCC(=O)N2CCCC2=O)cc1	·	2.7
CCOC(=O)c1ccc(CNS(=O)(=O)c2c(C)ccc3nsnc23)o1	0.42	-1.1
CO/N=C1\CC(C)(C)Cc2c(-c3ccn(C(=O)c4cccs4)n3)sc(SC)c21	-0.32	1.2
CC(C)c1cc(C(C)C)c(S(=O)(=O)N2CC3C4C=CC(C4)C3C2)c(C(C)C)c1 (stereo not given)	·	0.8
Cc1cc2c3c([nH]c2cc1S(=O)(=O)NCCCN1CCOCC1)CC(C)(C)CC3=O	-0.26	-0.8
Cc1oc2c(CN(C)C)c(O)ccc2c(=O)c1-c1cscn1	·	-6.0
CCCNS(=O)(=O)c1ccc(SC)cc1	3.3	-2.9
CCCN(CC1CC1)Cn1c(=S)sc2ccccc21	·	2.8
c1cc2c(cc1C13CC4CC(CC(C4)C1)C3)n1nnnc1c1nnnn21	0.6	-0.8
Cc1ccc(C=Nc2cccc(C#N)c2)s1	0.15	-2.1
O=c1oc2ccccc2cc1-c1nn(-c2ccccc2)cc1C=NCc1ccccc1	·	0.8
O=C(/C=C/c1cccs1)OCC1CCCO1 (stereo not given)	·	2.2
CCC(C)Sc1n[nH]c(=S)s1 (stereo not given)	·	3.2
O=C(Nc1cccnc1)C1=NN(C2CCS(=O)(=O)C2)C(=O)CC1 (stereo not given)	·	2.8
CCOC(=O)c1sc2nc[nH]c(=O)c2c1C	·	1.4
O=C(NCc1ccco1)C1Cc2cc(Cl)ccc2O1 (stereo not given)	·	-2.2
COc1ccc(/C=C2\COc3ccccc3C2=O)c(OC)c1	·	2.2
CC1=C(C(=O)N(C)C)C(c2ccc(-c3ccccc3)cc2)NC(=O)N1 (stereo not given)	·	-0.4
CCC(CC)NC(=O)Cc1ccc(F)cc1	0.14	2.0
COc1ccc(-c2c(C)nn3c(NCC(OC)OC)cc(C)nc23)cc1OC	0.4	0.9
Cc1cccc(-c2nnc(SCC(=O)OC(C)C)n2C)c1	2.2	1.2
COC(=O)C1C(=O)NC(SC)=C(C#N)C1c1ccccc1F (stereo not given)	-0.4	1.2
CCOC(=O)c1sc(NN)nc1C	·	-1.6
FC(F)(F)c1cc(-c2ccc3ccccc3c2)nn1C(=S)N1CCCCCC1	·	-1.0
O=C(c1cccs1)N1CCN(c2ncccn2)CC1	·	2.6
Cc1cccc(NC(=O)C(C)N2CCN(c3ccccc3O)CC2)c1 (stereo not given)	·	-0.7
O=C(O)c1ccc(C=Nc2ccc(C(=O)O)cc2)cc1	0.049	0.2
Cc1nn(-c2ccccc2)c2nc(-c3ccc4c(c3)OCO4)cc(-c3nnc4n3CCCCC4)c12	·	1.9
COCCn1c(C)cc(/C=C(\C#N)c2ccc(C)cc2)c1C	-0.18	0.8
O=C1CCc2cc(S(=O)(=O)N3CCc4ccccc43)cc3c2N1CC3	-1.6	1.6
CCCCCCCCCCCCCCC(F)C(=O)O (stereo not given)	-0.51	-1.0
CN(C)S(=O)(=O)c1ccc2oc3n[nH]c(=S)n3c2c1	·	0.3
Cc1ccccc1NC(=S)Nc1ccc(C#N)cc1	·	1.1

The list continues:
SMILES	LANA-nucl inh	Ab BasE inh
O=C1CN(C(=O)Cn2nnc(-c3cccc(C(F)(F)F)c3)n2)c2ccccc2N1	·	-4.3
COc1ccc(C(NC(=O)C2CC(=O)N(Cc3ccco3)C2)c2ccccc2)cc1 (stereo not given)	·	2.3
CN(C)c1ccc(/C=N/N=C2/C(=N/O)CCc3nonc32)cc1	0.41	2.2
CC1CCCCC1NC(=O)CN1CCC(NC(=O)Nc2ccccc2)CC1 (stereo not given)	-0.46	1.6
CC(NS(=O)(=O)c1ccccc1)C(=O)O (stereo not given)	·	2.9

Source: PubChem BioAssay

Not all compounds are listed, so the mix of outcomes need not match the whole.
